# YopH PTP inh: inhibitors of Yersinia enterocolitica YopH tyrosine phosphatase; 0.16% of 140,000 active; fluorescence Ex485/Em525; inhibition, %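 (about 10 µM by stock and volumes)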; AID 898;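 active = inhibition of 50% or more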;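 note: controls were vehicle for no effect and minimum signal wells for full effect; inactives centre near -20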
# RecA splice inh: inhibitors of M. tuberculosis RecA intein splicing. AID 2221. cell-free RecA intein splicing, fluorescence. inhibition, %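 (about 9 µM by stock and volumes)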. 0.75% of 290,000 active. P9WHJ3; in the data active = inhibition above about 30%; inconclusive = no clear call, values can overlap the other calls;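 note: 0% = vehicle wells and 100% = reference inhibitor control wells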
# Target sequence (P9WHJ3 whole entry, looked up, canonical isoform): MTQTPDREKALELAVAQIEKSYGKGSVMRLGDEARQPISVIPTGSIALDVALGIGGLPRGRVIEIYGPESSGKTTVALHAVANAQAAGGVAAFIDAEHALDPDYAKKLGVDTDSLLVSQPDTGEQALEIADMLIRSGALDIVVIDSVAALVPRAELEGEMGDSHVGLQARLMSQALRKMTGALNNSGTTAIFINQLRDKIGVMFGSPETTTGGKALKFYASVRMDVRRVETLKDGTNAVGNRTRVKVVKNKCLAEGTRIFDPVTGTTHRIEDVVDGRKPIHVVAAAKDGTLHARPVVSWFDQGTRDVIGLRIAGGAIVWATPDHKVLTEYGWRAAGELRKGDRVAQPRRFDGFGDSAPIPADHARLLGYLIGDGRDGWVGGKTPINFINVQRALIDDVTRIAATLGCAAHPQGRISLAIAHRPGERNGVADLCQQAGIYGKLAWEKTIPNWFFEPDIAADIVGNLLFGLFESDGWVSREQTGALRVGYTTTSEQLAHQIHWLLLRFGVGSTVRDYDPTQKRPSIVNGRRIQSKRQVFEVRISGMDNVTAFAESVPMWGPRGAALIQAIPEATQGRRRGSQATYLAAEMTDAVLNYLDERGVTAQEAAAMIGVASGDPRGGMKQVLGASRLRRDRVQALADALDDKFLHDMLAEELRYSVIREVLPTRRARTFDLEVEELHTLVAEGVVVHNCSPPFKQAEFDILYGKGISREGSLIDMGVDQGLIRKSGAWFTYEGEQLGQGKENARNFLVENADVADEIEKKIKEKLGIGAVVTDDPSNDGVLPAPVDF
# Mtb H37Rv: M. tuberculosis H37Rv growth inhibitors, H37Rv strain (AID 1626) | 0.95% of 220,000 active | inhibition, % at 10 µM, or IC50 in µM where a hit was titrated | M. tuberculosis H37Rv growth inhibition; higher % means a stronger effect;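 active = confirmed in a dose series; inconclusive = inhibition above 80% but not taken into the dose series; inactive = below 80% or under 30% at every dose of the series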;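 note: bacteria incubated seven days before Alamar blue readout; 0% = bacteria only wells and 100% = bacteria with antibiotic wells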
# Mtb bLac sens: beta-lactam sensitization of Mtb H37Rv; M. tuberculosis H37Rv growth with meropenem, percent inhibition; hits of this screen are not shown here; inhibition, % at 25 µM; 0.27% of 330,000 active;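 active = about 74% or more and at least 40 points above the plate without the antibiotic, then above 30% in a dose series; inconclusive = first-round hits that could not be retested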;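 note: growth measured after seven days incubation then overnight dye step; 0% = bacteria only wells and 100% = bacteria with antibiotic; twin plates without the antibiotic show which effects depend on it; some results filed as inactive read as strong as hits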
# Arbovirus anti: arbovirus infection inhibition; arbovirus infection cell-based antiviral screen; inhibition, % at 10 µM; 0.37% of 200,000 active;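 active = inhibition from about 30%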;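 note: bluetongue infection of BSR cells; cell survival read as ATP light after 72 h; 0% = infected wells without compound and 100% = uninfected wells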
# Arbovirus anti repeat: also measured in Arbovirus anti; calls as there; inhibition, %; measured here: 10K subset replicate screen; many hits read low in the repeat;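 first of two repeat runs on a subset; 0% = infected and 100% = uninfected wells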
# An asterisk follows results filed as active; ? = inconclusive; · = not tested or not shown.
SMILES,YopH PTP inh,RecA splice inh,Mtb H37Rv,Mtb bLac sens,Arbovirus anti,others
COc1ccc(OCc2cc(C(=O)N3CCSCC3)no2)c(Cl)c1,·,7.7,·,-2,·,
O=C(N/N=C/c1cccc(O)c1)c1ccc(NC(=O)c2cccc([N+](=O)[O-])c2)cc1,·,-1.3,6%,9,-12,
COc1ccccc1Cn1c(C)nnc1-c1cnn(C)c1N,·,-2.8,4%,7,6,
CC1(C)Cc2c(c(N3CCOCC3)nc3sc(C(N)=O)c(N)c23)CO1,·,-3.4,-2%,0,·,
CC1(C)S[C@@H]2[C@H](NC(=O)[C@H](C(=O)O)c3ccsc3)C(=O)N2[C@H]1C(=O)O,-14,·,·,·,5,
Cc1ccc(Oc2cc(NC(=O)CCCn3nc([N+](=O)[O-])c(Cl)c3C)cc([N+](=O)[O-])c2)cc1,-13,1.7,?,99,-18,
O=c1c2[nH]c3ccc(F)cc3c2ncn1Cc1ccncc1,·,-0.9,-4%,7,·,
COc1ccc(/C=C2\SC(=O)N(CCCC(=O)Nc3ccc(C(=O)O)cc3)C2=O)cc1OC,·,-1.7,·,2,·,
COc1cccc(C(=O)COc2ccccc2-c2ccccc2)c1,-29,-2.2,7%,3,-11,
CC(NCC(=O)Nc1cc(S(=O)(=O)N2CCCCCC2)ccc1Cl)c1ccccc1 (stereo not drawn),·,11,11%,-2,2,
CCOc1ccc(CN2CCN(Cc3ccc4cc(F)ccc4n3)CC2CCO)cc1 (stereo not drawn),·,-0.9,·,1,·,
CNC(=O)C1CC(=O)N(CCc2ccc(OC)c(OC)c2)C(=Nc2ccc(F)cc2)S1 (stereo not drawn),·,-0.6,-31%,-4,1,
CCOC(=O)C1CC(c2ccc(Cl)cc2)=NNC1=O (stereo not drawn),·,-0.8,-7%,-1,5,
CCCC1(C(=O)O)NC(c2ccccc2O)C2C(=O)N(Cc3ccccc3)C(=O)C21 (stereo not drawn),-53,·,-2%,-2,2,Arbovirus anti repeat=3
O=C(NCc1nnnn1-c1ccc(F)cc1)C1CC(=O)N(c2ccc(F)cc2)C1 (stereo not drawn),·,0.9,·,-3,·,
O=C(O)CCC(=O)NCCC1=c2ccccc2=N/C1=C\c1c(O)n(Cc2ccc(F)cc2)c(=S)[nH]c1=O,·,1.0,2%,1,·,
COc1ccccc1CNC(=O)C1CCN(C(=O)NC2CCCCC2)CC1,·,-2.8,-3%,-3,17,
O=C(CSc1c2c(nc3ccccc13)CCCC2)NCc1ccco1,·,25,-3%,34,5,
O=C(O)CS(=O)CC(=O)NCc1cccc(C(F)(F)F)c1 (stereo not drawn),·,-0.5,-11%,-2,1,
COc1ccc(OC)c(/C=N/NC(=O)c2nnn(-c3nonc3N)c2-c2cccs2)c1,·,-0.5,·,6,·,
COc1ccc(CC2(CCc3ccncc3)C(=O)NC(=O)NC2=O)c(OC)c1,·,-0.4,-1%,-2,1,
Cc1cnc(NC(=O)Cc2ccc(Br)cc2)s1,·,-0.6,·,-5,·,
CNC(=O)COC(=O)c1ccccc1Oc1ccccc1,7,1.0,-7%,-12,4,
O=C(CSc1nnc(-c2cccnc2)n1Cc1ccccc1)NCc1ccccc1,-6,-1.5,-10%,-4,1,
NC(=O)CC(NC(=O)Cc1ccc(Cl)cc1)c1ccc(NCc2ccccc2)c([N+](=O)[O-])c1 (stereo not drawn),·,-0.9,-13%,0,·,
CC(=O)NC1(C(F)(F)F)NC(=O)N(c2ccc(F)cc2)C1=O (stereo not drawn),·,0.3,2%,-3,-1,
O=C1N/C(=C/c2cccn2-c2ccc(F)cc2)C(=O)N1Cc1ccccc1F,-15,-14,4%,1,-3,
COc1cc2c(cc1NC(=O)CCCN1C(=O)CCC1=O)oc1ccccc12,-36,2.2,74%,42,-12,
Nc1ccc(S(=O)(=O)N2CCCC2)cc1Cl,·,-1.7,-1%,-4,·,
CCC(C)NC(=O)CC(NS(=O)(=O)c1ccc(Cl)cc1)c1ccco1 (stereo not drawn),22,-0.5,6%,-5,0,
O=C(Nc1ccccc1C(=O)O)c1ccc(NC(=O)C2CCCO2)cc1 (stereo not drawn),·,0.6,·,-5,·,
CCC1C(=O)c2ccccc2N(C)C1=O (stereo not drawn),-30,-2.0,8%,-3,4,
CCCC(=O)NC(c1ccc(OC)cc1)c1c(O)ccc2ccccc12 (stereo not drawn),·,1.5,·,-3,·,
Cc1cc(C)c(NC(=O)C2CCCN2CCC(C)C)c(C)c1 (stereo not drawn),-15,-0.1,1%,-3,-2,
CCN(CC)c1ccc(S(=O)(=O)N2CCOCC2)cc1NC(=O)COC(=O)COc1ccccc1C,·,5.6,·,-2,·,
COc1ccc(CN2CCN(CCC(C)C)C(CCO)C2)cc1Cn1cccn1 (stereo not drawn),·,·,-8%,4,-9,
CN1CCN(C(=O)c2cc3cc(F)ccc3[nH]2)CC1,·,5.0,·,4,·,
COc1ccc(C(CC(=O)c2ccccc2)S(=O)(=O)c2ccc(C)cc2)cc1 (stereo not drawn),-33,-0.4,17%,97,-32,
Cc1ccc(NC(=O)c2cc(Cl)ccc2[N+](=O)[O-])cc1C,-29,-2.6,-1%,0,0,
Cc1cn(COC/C=C/c2ccccc2)c(=O)[nH]c1=O,-33,-6.0,0%,6,5,

# In the list so far, these have an aryl methoxy group:
SMILES,YopH PTP inh,RecA splice inh,Mtb H37Rv,Mtb bLac sens,Arbovirus anti,others
COc1ccc(OCc2cc(C(=O)N3CCSCC3)no2)c(Cl)c1,·,7.7,·,-2,·,
COc1ccccc1Cn1c(C)nnc1-c1cnn(C)c1N,·,-2.8,4%,7,6,
COc1ccc(/C=C2\SC(=O)N(CCCC(=O)Nc3ccc(C(=O)O)cc3)C2=O)cc1OC,·,-1.7,·,2,·,
COc1cccc(C(=O)COc2ccccc2-c2ccccc2)c1,-29,-2.2,7%,3,-11,
CNC(=O)C1CC(=O)N(CCc2ccc(OC)c(OC)c2)C(=Nc2ccc(F)cc2)S1 (stereo not drawn),·,-0.6,-31%,-4,1,
COc1ccccc1CNC(=O)C1CCN(C(=O)NC2CCCCC2)CC1,·,-2.8,-3%,-3,17,
COc1ccc(OC)c(/C=N/NC(=O)c2nnn(-c3nonc3N)c2-c2cccs2)c1,·,-0.5,·,6,·,
COc1ccc(CC2(CCc3ccncc3)C(=O)NC(=O)NC2=O)c(OC)c1,·,-0.4,-1%,-2,1,
COc1cc2c(cc1NC(=O)CCCN1C(=O)CCC1=O)oc1ccccc12,-36,2.2,74%,42,-12,
CCCC(=O)NC(c1ccc(OC)cc1)c1c(O)ccc2ccccc12 (stereo not drawn),·,1.5,·,-3,·,
COc1ccc(CN2CCN(CCC(C)C)C(CCO)C2)cc1Cn1cccn1 (stereo not drawn),·,·,-8%,4,-9,
COc1ccc(C(CC(=O)c2ccccc2)S(=O)(=O)c2ccc(C)cc2)cc1 (stereo not drawn),-33,-0.4,17%,97,-32,

# Additional records.
SMILES,YopH PTP inh,RecA splice inh,Mtb H37Rv,Mtb bLac sens,Arbovirus anti,others
COc1ccc(C)cc1Nc1nnc(C)c(=O)[nH]1,·,-3.6,1%,-1,4,
CCc1cccc(NC(=O)Cn2c(=O)c3cccn3c3ccccc32)c1,·,1.3,·,-8,·,
O/N=C/c1cccc[n+]1CCCCCC[n+]1ccccc1/C=N/O,·,-0.7,·,2,·,
COC(=O)[C@H](CCSC)NC(=O)NCc1ccccc1F,12,0.5,0%,10,7,
O=C(Nc1nc2ccccc2[nH]1)C1CCN(S(=O)(=O)c2cccs2)CC1,9,-0.8,-4%,-16,-3,
Nn1c(SCc2cccc(F)c2)nnc1-c1ccncc1,·,-0.3,11%,-6,·,
O=C(CN1C(=O)NC2(CCCC2)C1=O)N1CCN(S(=O)(=O)c2ccccc2F)CC1,·,0.7,·,1,·,
CN(C)c1ccc(C(=O)NCc2ccc3c(c2)CCO3)cc1,·,·,-17%,-8,·,
CN(C)N1C(N)=C(C#N)C(c2ccc3c(c2)OCO3)C2=C1CCCC2=O (stereo not drawn),·,-3.9,·,2,·,
COc1ccc(C(=O)NCCOC(C)C)cc1OC1CCN(C(C)=O)CC1,·,-4.8,·,5,·,
CCCCCCCCCCCCN1[C@@H](CC(C)=O)c2cc(F)cc(F)c2S1(=O)=O,·,5.4,4%,-6,·,
COc1cccc(-c2nc(CS(=O)CC(=O)NCCc3ccccc3)c(C)o2)c1 (stereo not drawn),·,3.9,·,-7,·,
Cc1oc(-c2ccc3c(c2)OCCO3)cc1C(=O)NCC(=O)O,·,-1.2,-8%,0,-3,
CCSc1nnc(Cn2c(=O)sc3ccccc32)n1-c1ccc(OC)cc1,-35,1.9,-5%,-2,7,Arbovirus anti repeat=-1
COCCc1nnc(NC(=O)Cc2ccccc2)s1,-23,0.8,-1%,3,10,
Cc1cc(C)c(C#N)c(SCCN2CCCCC2)n1,·,-0.5,·,-7,·,
COC(=O)CSc1nnc(-c2cccnc2)n1C,·,1.6,-1%,-5,4,
COc1ccc(Cc2nc3ccc(C(=O)N4CCC(N(C)C)C4)cc3o2)cc1 (stereo not drawn),·,-0.3,·,-11,·,
Nc1ccc(C(=O)NNC(=O)C2COc3ccccc3O2)cc1[N+](=O)[O-] (stereo not drawn),·,-0.1,·,-6,·,
C=CCn1c(-c2cccc(Cl)c2)n[nH]c1=S,-21,-1.2,1%,-5,8,
CCC(CC)NCc1c[nH]c2ccccc12,·,1.7,-4%,-5,27,
COCCN(CCOC)C(=O)c1sc2nc(-c3ccccc3)cn2c1C,-35,1.0,-2%,-10,2,
CCOC(=O)C1(Cc2ccccc2)CCCN(Cc2cnn(CC)c2)C1 (stereo not drawn),·,22,7%,-3,8,
CCC(=O)Oc1ccc2ccccc2c1CNC(=O)c1ccccc1,-27,6.2,16%,10,15,
COC(=O)CCCC1=CC2=C(c3ccccc3)C(=O)C(C)(OC(=O)C3CCCC3)C(=O)C2=CN1Cc1ccco1 (stereo not drawn),·,8.4,-1%,-4,·,
O=C(COc1ccccc1Cl)NCCCNC(=O)c1ccncc1,·,-1.2,·,-1,·,
Clc1ccccc1CNCc1ccncc1,·,-1.8,-4%,-8,6,
CCOc1ccc(CCNC(=O)CSc2ncn[nH]2)cc1OCC,·,1.8,·,-1,·,
Cc1ccccc1C(=O)N1CC(=O)Nc2ccc(F)cc2C1c1ccccc1 (stereo not drawn),·,3.0,·,-1,·,
Cc1cccc(C(=O)Nc2ccc(S(=O)(=O)N3CCOCC3)cc2)c1[N+](=O)[O-],·,1.0,·,5,·,
COc1ccc(NC(=O)C2CCCN(S(=O)(=O)c3c(C)n[nH]c3C)C2)c(OC)c1 (stereo not drawn),-42,·,2%,-13,4,
O=C(NCCc1cccc(Cl)c1)c1cc([N+](=O)[O-])ccc1Cl,-23,1.3,0%,0,-2,
CN(C)c1ccc(/C=c2/sc3n(c2=O)NC2(c4ccccc4)N(C)C(=O)N(C)C2(c2ccccc2)N=3)cc1 (stereo not drawn),-33,-1.6,0%,4,1,
O=C(COC(=O)c1cccs1)NCC1CCCO1 (stereo not drawn),-39,0.2,-10%,-4,18,
O=C(O)CCNC1C=CS(=O)(=O)C1 (stereo not drawn),·,-0.8,-8%,-7,1,
Cc1csc(NC(=O)CSc2nccn2C)n1,·,1.6,·,-2,·,
O=C(NC1CC1)c1ccc(NS(=O)(=O)c2ccccc2)cc1,·,0.9,·,-5,·,
CCCC1c2ccc(C)n2CCN1C(=O)Nc1ccccc1Cl (stereo not drawn),-5,1.2,-4%,-3,-1,
CCN(CC)S(=O)(=O)c1ccc(-c2nnc(SCC(=O)N3c4ccccc4CC3C)o2)cc1 (stereo not drawn),-43,-1.0,2%,-10,2,
CC(=O)c1ccc2c(c1)C1C(Cl)C(Sc3ccccc3[N+](=O)[O-])CC1C(c1ccccc1)N2 (stereo not drawn),0,14,13%,98,-14,
O=c1c2c(n3cnnc3n1C1CCCCC1)-c1ccccc1CC21CCCCC1,-16,0.6,6%,-5,-8,
COc1ccc2cc(C(C)C(=O)NC3CCC(O)CC3)ccc2c1 (stereo not drawn),·,-0.2,·,-2,·,
COc1ccc(OC(=O)c2cc3ccccc3o2)cc1,4,-1.0,0%,98,-7,
CCOc1ccc2ccccc2c1/C=N\NC(=O)c1ccc([N+](=O)[O-])cc1,·,-1.3,·,7,·,
COc1ccc(-c2noc(N3CCCC(C(=O)Nc4ccc(C(C)=O)cc4)C3)n2)cc1 (stereo not drawn),·,0.9,·,34,·,
CCCc1cc(=O)[nH]c(SCC)n1,-52,-3.7,-4%,12,6,

# Some of the compounds tested; count on the stated rates, not on these rows.
